PrP UTR inh: suppresses PrP 5' UTR mRNA reporter expression; cell-based PrP 5' UTR mRNA reporter, plate reader; inhibition, % (test concentration not listed); actives 0.35% (n = 340,000); AID 488862;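 active = every replicate at 50% or more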;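 also: 0 = median of the neutral control wells; tested in H4 reporter cells; numbers are from one replicate; inactives centre near -14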
Mtb hypoxia rep: reduces hypoxia-regulated biosensor signal in M. tuberculosis; M. tuberculosis hypoxia-regulated fluorescent reporter, fluorescence; fluorescence inhibition, % (no concentration beside the values); actives 0.1% (n = 300,000);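 active = 35 to 45% if threefold the growth effect, above 45% if 1.5-fold the growth effect; inactive = the rest, general growth blockers included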;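 also: wells of about 50 µL received 100 nL stock; 0% = vehicle wells and 100% = reference inhibitor wells; whole bacteria with a GFP reporter of the hypoxia response; strong numbers were not always called active; many hits fall short of the cut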
Bead autofluor: counter-screen for toxin protease inhibitors: compound fluorescence | compound autofluorescence counterscreen, microsphere flow cytometry; hits give high values | fluorescence intensity (test concentration not listed) | actives 3.1% (n = 360,000) | AID 624483;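 active = at least 3 SD above the mean of all compounds, about 16000 in these data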;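 also: 100 nL of 1 mM stock went into each well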
ugtP null kill: compounds lethal to S. aureus RN4220 ugtP deletion mutant; AID 1259309; actives 0.54% (n = 330,000); growth inhibition, % (concentration not given with the values); OD600 growth, 16 h; some inactives read as strong as hits;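 active = z-score under -3 and OD600 up to 0.15 on both plates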;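 also: plate controls were untreated wells for no effect and antibiotic for full effect; wells of about 80 µL received 100 nL stock; the first replicate is given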
BJeLR viability: kills HRASV12-expressing BJeLR cells | AID 1554 | actives 0.17% (n = 300,000) | BJeLR (HRASV12) viability, CellTiter-Glo ATP luminescence, 48 h; reference of the scale not given here | inhibition, % (concentration not given with the values);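 active = replicate mean above 50%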;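 also: 50 nL library stock added to about 25 µL; numbers are from one replicate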
Sa RN4220 lethal: kills Staphylococcus aureus RN4220 | S. aureus RN4220 growth, OD600, 16 h | inhibition, % (concentration not given with the values) | actives 0.33% (n = 330,000) | AID 1259311;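 active = z-score of -3 or lower and OD600 up to 0.18 on both plates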;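 also: plate controls were untreated cells for no effect and reference antibiotic for full effect; stock transfer was 100 nL into about 80 µL; one replicate is shown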
Mtb hypoxia rep growth: recorded beside Mtb hypoxia rep, whose call it bears; growth inhibition, %; measured here: M. tuberculosis growth (absorbance);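 0% = vehicle and 100% = reference antibiotic; read after six days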
Starred values were filed as active, the others as inactive; nt = not tested or not shown. Rows are unselected; 4% or so of the library scored in one or more.

SMILES | PrP UTR inh | Mtb hypoxia rep | Mtb hypoxia rep growth | Bead autofluor | ugtP null kill | BJeLR viability | Sa RN4220 lethal
Cc1ccc(NC(=O)CN(C)C(=O)CSc2nncn2C)cc1 | -11 | nt | nt | 2795 | -2 | 7 | 0.5
CC(=O)NC(Cc1ccc(F)c(F)c1)C(=O)NC1CCN(c2nnnn2-c2ccccc2)CC1 (stereo not drawn) | -3 | -4 | 2 | 4240 | 9 | 27 | 2.1
C=CC(O)(C#CCN(CC)CC)c1ccccc1 (stereo not drawn) | -16 | 10 | -6 | 3456 | 7 | -1 | 3.3
Cc1c(N(C(=O)Cc2cccs2)C2(C(=O)NC3CCCC3)CCCCC2)c(=O)n(-c2ccccc2)n1C | -12 | -12 | 3 | 4391 | -6 | 4 | 0.3
Oc1ccc(C2C(c3ccccc3)=NN=C(c3ccc(Cl)cc3)N2O)c(O)c1 (stereo not drawn) | -11 | -9 | -7 | 2154 | -8 | -8 | -13
O=C(Nc1ccc(O)c(-c2nc3ccccc3o2)c1)C1(c2ccc(Br)cc2)CCCC1 | -15 | 12 | 11 | 2089 | 4 | 7 | 4.0
CNC(=O)CCn1nc(-c2ccccc2)c2ccccc2c1=O | -19 | 11 | 2 | 4317 | 5 | 9 | 3.5
CC(=NNC(=O)c1ccc(-c2ccccc2)cc1)c1ccco1 | nt | 1 | 2 | nt | -1 | nt | 2.6
CCCCSC1=C(C#N)C(c2ccccc2C)CC(=O)N1 (stereo not drawn) | -8 | 13 | 9 | 5756 | 10 | 0 | 4.2
CCOc1ccccc1NC(=O)C1CCN(C(=O)C2CC(=O)N(c3ccc(C)cc3)C2)CC1 (stereo not drawn) | -19 | -3 | -6 | 4390 | -6 | -3 | -0.1
CC(OC(=O)c1cc(=O)c2cc(Cl)ccc2o1)C(=O)N1CCCC1 (stereo not drawn) | -26 | 0 | 2 | 5512 | 9 | nt | 1.6
O=C(CCCN1C(=O)c2cccnc2C1=O)N1CC(=O)N(CCc2ccccc2)C(=O)C1 | -38 | 5 | 10 | 4238 | 6 | nt | 2.1
CN1C[C@@H]2C(c3ccc(Cl)nc3)C3(c4cccnc4)CC2(C3)[C@H]1c1ccccc1 (stereo partly drawn) | -17 | nt | nt | 9658 | nt | -7 | nt
CCc1ccc(NS(=O)(=O)c2ccc3[nH]c(=O)[nH]c3c2)cc1 | -21 | 7 | 5 | 2521 | 16 | 9 | 2.4
Cc1c(N=C(N)N=C(N)Nc2ccc(Br)cc2)c(=O)n(-c2ccccc2)n1C | nt | 10 | 2 | nt | 8 | nt | 2.7
C=CCn1c(-c2ccc(N)cc2)nc2ccccc21 | -41 | nt | nt | 3976 | -1 | 3 | -0.2
CCN1C(=O)C2C(c3ccc(-c4ccc(OC)cc4)cc3)N[C@@](Cc3ccccc3)(C(=O)OC)C2C1=O (stereo partly drawn) | nt | 4 | 18 | nt | 18 | nt | 5.0
Cc1cc(N2CCOCC2)nc2cc(O)ccc12 | -48 | 1 | -5 | 4203 | 2 | 11 | 4.4
Cc1c(Cl)cccc1NC(=O)Cn1cccc1 | 11 | 5 | 4 | 23242* | 3 | -8 | 0.3
Cc1ccsc1/C=N/NC(=O)CNC(=O)c1cccc([N+](=O)[O-])c1C | -19 | nt | nt | 4248 | nt | 2 | nt
CC(C)CCNCC(O)CON=C1c2ccccc2-c2ccccc21 (stereo not drawn) | -25 | 8 | 5 | 4585 | 3 | 12 | -2.4
COC(=O)c1ccc(CSC2=NC[C@@H]3[C@@H]4C(=O)N(C)C(=O)[C@@H]4[C@](Cc4ccccc4)(C(=O)OC)N23)cc1 | -21 | -6 | 2 | 3760 | -1 | nt | 1.5
CCc1nn(C(C)C(=O)NCCN2CCCCCC2)c(=O)c2cc3occc3n12 (stereo not drawn) | -7 | 7 | 16 | 5658 | 1 | 2 | 2.2
CS(=O)(=O)N(CC(=O)N/N=C/c1ccco1)c1ccccc1Br | -4 | nt | nt | 2383 | nt | 11 | nt
COC(=O)CC1c2ccccc2S(=O)(=O)N1Cc1ccccc1 (stereo not drawn) | -18 | 5 | 9 | 4335 | 2 | -2 | 2.0
Cc1ccc(N2C(=O)CC(N(CCc3ccccc3)C(=S)Nc3ccc(N(C)C)cc3)C2=O)cc1 (stereo not drawn) | -5 | 6 | 10 | 2937 | -6 | 0 | 3.4
CCCc1cc(C(=O)NCc2ccccc2)no1 | -64 | nt | nt | 5268 | 1 | -2 | -14
Cc1cccc(C)c1OC(=O)C(c1ccccc1)c1ccccc1 | 4 | 9 | 9 | 2450 | 96* | 6 | 0.4
O=C(Cc1ccccc1)N/N=C/c1ccc(-c2ccc([N+](=O)[O-])cc2)o1 | -11 | nt | nt | 2078 | nt | -9 | nt
Cc1nc(Nc2ccccc2C(F)(F)F)sc1C(=O)N(C)C | -41 | 16 | 10 | 5052 | -64 | -3 | 1.8
COCCN(Cc1cc2cc(C)ccc2nc1Cl)C(=O)Nc1ccccc1C | -14 | -7 | 10 | 8398 | -1 | 8 | 0.7
Cc1cc(O)ccc1NC(=S)NC(=O)c1cncc(Br)c1 | -9 | 5 | 1 | 3735 | 5 | 9 | 27
CCOc1ccccc1NC(=O)Cn1c(=O)n(-c2ccccc2)c(=O)c2oc3ccccc3c21 | -2 | 14 | 3 | 2629 | -2 | 2 | 2.5
CCOC(=O)C1=CN(CC)S(=O)(=O)NC1c1ccc2ccccc2c1 (stereo not drawn) | -13 | -2 | 1 | 4145 | 3 | nt | 3.8
CC1(C(=O)NCc2ccc(Cl)c(Cl)c2)Oc2cccnc2NC1=O (stereo not drawn) | -16 | 15 | 4 | 4786 | -74 | -22 | 8.2
O=C(CSc1nnc(COc2cccc3cccnc23)o1)N1CCc2ccccc21 | -8 | 18 | 8 | 6101 | 8 | -1 | 8.5
O=C(C(=O)N1CCN(c2ccccc2)CC1)c1c[nH]c2ccccc12 | 0 | 3 | -2 | 3407 | 0 | -10 | -7.6
Cc1cc(C)c(OCCCCNCc2ccccc2)c(Cl)c1 | -38 | 3 | 12 | 21662* | -28 | 4 | 2.4
COc1ccc(OC)c(N(CC(=O)N2CCCC2)S(=O)(=O)c2ccc(C)cc2)c1 | -11 | 11 | 11 | 3361 | 7 | 8 | 2.8
COc1cc(NC2CCCCC2O)c2nc(-c3ccc(Cl)cc3)ccc2c1 (stereo not drawn) | -68 | 9 | 5 | 4000 | 25 | 5 | -19

Of the compounds above, these have an NH in an aromatic ring:
SMILES | PrP UTR inh | Mtb hypoxia rep | Mtb hypoxia rep growth | Bead autofluor | ugtP null kill | BJeLR viability | Sa RN4220 lethal
CCc1ccc(NS(=O)(=O)c2ccc3[nH]c(=O)[nH]c3c2)cc1 | -21 | 7 | 5 | 2521 | 16 | 9 | 2.4
O=C(C(=O)N1CCN(c2ccccc2)CC1)c1c[nH]c2ccccc12 | 0 | 3 | -2 | 3407 | 0 | -10 | -7.6

Filtered by structure: the entries above with an aryl thioether with sulfur outside any ring
SMILES | PrP UTR inh | Mtb hypoxia rep | Mtb hypoxia rep growth | Bead autofluor | ugtP null kill | BJeLR viability | Sa RN4220 lethal
Cc1ccc(NC(=O)CN(C)C(=O)CSc2nncn2C)cc1 | -11 | nt | nt | 2795 | -2 | 7 | 0.5
O=C(CSc1nnc(COc2cccc3cccnc23)o1)N1CCc2ccccc21 | -8 | 18 | 8 | 6101 | 8 | -1 | 8.5

(more compounds)
SMILES | PrP UTR inh | Mtb hypoxia rep | Mtb hypoxia rep growth | Bead autofluor | ugtP null kill | BJeLR viability | Sa RN4220 lethal
O=C(Nc1c2c(nn1-c1ccc(F)cc1)CS(=O)(=O)C2)c1ccc(S(=O)(=O)N2CCOCC2)cc1 | 12 | 11 | 3 | 3181 | 12 | -3 | 5.7
CC(=O)Nc1ccc(C(=O)c2ccccc2)cc1 | -11 | nt | nt | 2769 | 5 | -9 | 0.7
O=C(O)CC(c1ccccc1F)N1Cc2ccccc2C1=O (stereo not drawn) | -15 | -1 | 3 | 3597 | 15 | -5 | 3.7
COc1ccc(C(CNC(=O)C(CCSC)NC(=O)c2ccccc2Cl)N2CCCC2)cc1 (stereo not drawn) | -8 | 2 | -10 | 15232 | 6 | nt | -1.7
COc1ccccc1C(=O)OCCN1CCOCC1 | -34 | -1 | 0 | 9335 | 0 | -1 | 2.9
O=C1Nc2cc(C(=O)N3CCOCC3)ccc2SC1N1CCOCC1 (stereo not drawn) | -10 | 9 | 8 | 2589 | 13 | 4 | 6.0
O=C(NNC1=NCCCCC1)c1ccccc1 | -4 | 4 | 8 | 22558* | 1 | -13 | 1.3
COc1ccc(OCC(=O)NNC(=O)c2cc3ccccc3o2)cc1 | -11 | 6 | 4 | 8906 | -1 | 5 | 1.6
Fc1cccc(CN2CCN(c3nc4nonc4nc3NC3CC3)CC2)c1 | -16 | 8 | 10 | 2654 | 2 | -2 | 5.2
CCN1C(=O)N[C@@H](CCc2ccccc2)C(C(C)=O)=C1C | -14 | nt | nt | 4115 | nt | -11 | nt
COc1cccc(C2(O)CCN(CC(=O)Nc3nc(C)cs3)CC2)c1 | -18 | -4 | -6 | 2260 | -3 | 1 | 6.9
N#CC1(NC(=O)COC(=O)CN2C(=O)c3ccccc3C2=O)CCCCC1 | -7 | 1 | 1 | 5237 | 4 | 3 | 2.5
COc1ccc(-n2nc3c(c2NC(=O)C(C)Oc2ccccc2)CS(=O)(=O)C3)cc1 (stereo not drawn) | -14 | 7 | 8 | 4538 | 8 | 0 | 2.5
CCN1C(=O)[C@H]2[C@@H](c3ccc(C)cc3)N3C(=O)N(c4ccccc4)C(=O)[C@@]3(Cc3ccc(Cl)cc3)[C@H]2C1=O | -25 | nt | nt | 3589 | nt | -6 | nt
O=C(O)c1cccc(S(=O)(=O)Nc2ccc3[nH]c(=O)[nH]c3c2)c1 | -12 | 6 | -4 | 5193 | -1 | -7 | 2.3
COc1ccc(NC(=O)COc2ccc(-c3nn(C)c(=O)c4ccccc34)cc2)cc1 | -6 | 21 | 16 | 4288 | 4 | 5 | 0.3
COc1cccc(NC(=O)CC(C)=NNC(=O)c2ccccc2Cl)c1 | nt | 6 | -3 | nt | 7 | nt | 2.6
Cc1nn(Cc2ccc(C(=O)Nc3nccs3)cc2)c(C)c1Cl | -49 | nt | nt | 8793 | nt | -4 | nt
COc1c(Cl)ccc(Cl)c1C(=O)NCc1ccco1 | -9 | -5 | 6 | 4334 | -4 | 10 | 0.4
COC(=O)c1cc(C)sc1NC(=O)CSc1ncccn1 | -13 | 0 | -1 | 6743 | -2 | 7 | 0.0
COc1cnn(-c2ccc(Br)cc2)c(=O)c1SCc1ccccc1 | -22 | 17 | 2 | 2520 | 3 | -4 | 5.7
O/N=C(\c1ccc2c(c1)OCCO2)C1CCCCC1 | -20 | nt | nt | 4343 | nt | 2 | nt
O=C(NNC(=S)NCc1ccco1)c1ccc(Cl)s1 | -25 | 25 | 24 | 2583 | 0 | -13 | 15
CCc1nc2ccccc2c(C(=O)OCC(=O)Nc2ccc(NC(C)=O)cc2)c1C | -6 | 2 | 6 | 4076 | -4 | nt | -1.5
O=C(NCCCN1CCN(CCCNC(=O)c2ccc3c(c2)OCO3)CC1)c1ccc2c(c1)OCO2 | -6 | -80 | 0 | 7349 | -1 | -4 | -0.1
CCOC(=O)c1cnn2c(C)cc(-c3ccc(F)cc3)nc12 | -74 | nt | nt | 2180 | -22 | 6 | -4.2
N#CCCN(Cc1ccccc1)C(=O)Nc1ccc(F)cc1 | -25 | 2 | 5 | 5949 | 4 | -12 | -0.1
C/C(=N\OC(=O)c1cccc(C)c1)c1sc(-c2ccccc2)nc1C | -49 | nt | nt | 15212 | nt | 12 | nt
CC(C)C(=O)Nc1nnc(SCC(=O)Nc2ccc3c(c2)OCO3)s1 | -17 | 2 | -4 | 10860 | 8 | 9 | 2.8
Cc1noc(C)c1C(=O)OCC(=O)NCCC1=CCCCC1 | -22 | 1 | 8 | 4133 | 2 | -5 | 3.2
COCCNC(=S)N(CCc1c(C)[nH]c2ccc(F)cc12)Cc1cccnc1 | -11 | -8 | -15 | 3005 | 8 | -8 | 3.7
Cc1nc(SCC(=O)N2CCN(c3ccccc3)CC2)n[nH]1 | -24 | 7 | -4 | 3030 | 8 | 3 | 4.4
Cc1cc(C)c2c(NC(N)=S)n[nH]c2n1 | -13 | 13 | 1 | 4407 | 6 | 4 | 6.3
COc1cccc2cc(C(=O)N3CCCCC3C)c(=O)oc12 (stereo not drawn) | -2 | 7 | 3 | 3326 | -8 | 0 | 2.9

Assay outcomes: PubChem, several laboratories
